High-throughput results (PubChem)
ClpP mod – qHTS Assay for Activators of ClpP. ATP-dependent Clp protease proteolytic subunit (Bacillus subtilis (strain 168)), P80244. purified B. subtilis ClpP, FRET peptide cleavage, 20 min. Potency, µM (highest dose often 57.5 µM), without a hit: at the top dose activity change, negative = active. 340,000 tested, 1.9% active. AID 651965, 2013; active = well fitted falling curve with a large enough effect; inconclusive = small, poorly fitted or top-dose-only effect; inactive = no such curve, though single readings can be large or run the other way; further: potency means the concentration at half of the fitted maximal effect; the source files actives as falling curves though it sought activators and does not explain the sign; nearly all actives have a fitted effect of over 65% in size; many hits overshoot -100%
Target sequence (P80244 whole entry, looked up): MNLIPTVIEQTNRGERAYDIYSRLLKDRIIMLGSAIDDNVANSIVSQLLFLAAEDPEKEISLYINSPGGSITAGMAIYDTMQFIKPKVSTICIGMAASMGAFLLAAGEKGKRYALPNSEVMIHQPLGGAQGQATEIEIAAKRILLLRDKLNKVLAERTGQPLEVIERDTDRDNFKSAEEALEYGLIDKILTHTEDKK
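FRET quenching reversal measured ClpP activation: 10 microg/mL B. subtilis ClpP at pH 8 with the FRET-FV decapeptide, read at 430 nm after 320 nm excitation. The 20-min minus 0-min signal was scaled between DMSO/no-enzyme wells and ADEP (5.8 microM final).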
CtBP-E1A blk – inhibitors of CtBP/E1A interaction; AlphaScreen GST-E1A/His-CtBP binding, 1536-well; hits give low values; control for the full effect not named in the record; activity change, % (concentration not given with the values); 340,000 tested, 0.49% active; AID 651724; in the data active means activity change below about -65%; inconclusive means about -30% to -65%; inactive means above about -30%; further: on the % scale 0 is the no-effect control and ±100 the full control effect
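Homogeneous bead-based format: GST-tagged E1A captured on glutathione donor beads, His-tagged CtBP on nickel acceptor beads; compounds precede bead addition by 2 h at 37 °C.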
Sfp PPTase inh – Sfp phosphopantetheinyl transferase inhibition. Potency, µM, inactives show max response, negative = inhibition, usual class: inhibitors. Biochemical Sfp PPTase activity, qHTS. 310,000 tested, 3.5% active. Q9F4F7; active means well fitted inhibition curve with a large enough effect; inconclusive means small, poorly fitted or top-dose-only effect, or another doubt; inactive means no such curve, though single readings can be large or run the other way;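 further: the enzyme is Sfp with the accession as filed and its product quenches rhodamine fluorescence; potency means the concentration at half of the fitted maximal effect; 0% = enzyme reaction without inhibitor and -100% = no enzyme wells; top concentration of the series not given in the record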
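Fluorescence-quenching assay: 15 nM Sfp-PPTase preincubated 15 min at room temperature with compound, then 5 uM rhodamine-CoA and 12.5 uM BHQ-2-labelled YbbR peptide added. Fluorescence (ex 525/em 598 nm) read at start and after 30 min; difference gives rate.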
TRPV1 potentiator – potentiators of human vanilloid receptor 1 (TRPV1). Q8NER1. TRPV1-expressing cells, Fluo-8 calcium influx, capsaicin EC20 potentiation; host cell line not named in the record; control for the full effect not named in the record. potentiation, % at 8.33 µM. 320,000 tested, 0.02% active. AID 540277; active means potentiation above 80%; inconclusive means 30% to 80%; inactive means below 30%; further: 0% is about no effect
Target sequence (Q8NER1 whole entry, looked up): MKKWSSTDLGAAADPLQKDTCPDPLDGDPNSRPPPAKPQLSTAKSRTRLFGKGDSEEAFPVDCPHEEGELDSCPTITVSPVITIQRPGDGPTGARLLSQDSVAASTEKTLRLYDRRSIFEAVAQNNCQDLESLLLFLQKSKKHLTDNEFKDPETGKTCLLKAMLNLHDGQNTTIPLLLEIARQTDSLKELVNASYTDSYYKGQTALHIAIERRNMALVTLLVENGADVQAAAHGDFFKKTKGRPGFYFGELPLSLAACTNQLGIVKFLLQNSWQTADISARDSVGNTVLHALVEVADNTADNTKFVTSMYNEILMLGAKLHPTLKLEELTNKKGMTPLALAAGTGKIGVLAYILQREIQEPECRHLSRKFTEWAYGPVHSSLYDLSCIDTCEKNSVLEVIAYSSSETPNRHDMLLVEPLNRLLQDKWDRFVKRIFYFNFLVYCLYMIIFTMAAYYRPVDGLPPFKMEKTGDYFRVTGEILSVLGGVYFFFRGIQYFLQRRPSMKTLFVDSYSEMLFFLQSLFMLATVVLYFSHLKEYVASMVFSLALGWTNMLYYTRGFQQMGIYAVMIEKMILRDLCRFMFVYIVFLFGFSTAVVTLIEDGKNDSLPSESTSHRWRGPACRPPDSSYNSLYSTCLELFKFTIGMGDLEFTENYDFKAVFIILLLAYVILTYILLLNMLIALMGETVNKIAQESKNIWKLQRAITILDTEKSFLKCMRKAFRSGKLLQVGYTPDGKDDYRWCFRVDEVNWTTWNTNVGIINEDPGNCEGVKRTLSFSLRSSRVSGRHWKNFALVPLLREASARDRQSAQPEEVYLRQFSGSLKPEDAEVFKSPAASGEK
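Fluo-8 calcium influx in TRPV1-expressing cells, kinetic read (ex 480/em 520 nm). Compound added and read 3 min for agonist activity, followed by capsaicin at EC20 final and 2 min further read for enhancement.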
gsp antagonist – antagonists of gsp mutant (McCune-Albright syndrome); Potency, µM (doses to about 76.9 µM), for the others: at the top dose activity change, negative = inhibition, hits mostly inhibitors; gsp-mutant cells, cAMP HTRF, 30 min; control for the full effect not named in the record; AID 624288; 340,000 tested, 0.4% active; active = falling curve of any shape with a large fitted effect; inconclusive = falling curve, mostly with a smaller effect; inactive = flat or rising curve; cell line not stated here;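 further: intracellular cAMP measured with PDE inhibitor Ro 20-1724 present during compound exposure; potency means the concentration at half of the fitted maximal effect; on the % scale 0 is the no-effect control and ±100 the full control effect; nearly all actives have a fitted effect of over 65% in size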
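Cells in G418 medium, seeded 16-24 h, 37C; buffer exchange to DPBS + 1 mM CaCl2, 0.5 mM MgCl2, 0.05% BSA; cpds in DMSO + […] (300 uM stock), 30 min 37C; HTRF cAMP detection.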
gsp ag – agonists of gsp mutant (McCune-Albright syndrome); gsp mutant cells, cAMP HTRF, 30 min; control for the full effect not named in the record; Potency, µM (doses to about 76.9 µM), for the others: at the top dose activation (cAMP increase), hits mostly activators; 340,000 tested, 0.13% active; AID 624287; active = well fitted activation curve with a large enough effect; inconclusive = small, poorly fitted or top-dose-only effect, or another doubt; inactive = no such curve, though single readings can be large or run the other way; cell line not stated here;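 further: phosphodiesterase inhibitor Ro 20-1724 added with compounds to block cAMP breakdown; potency means the concentration at half of the fitted maximal effect; nearly all actives have a fitted effect of over 60% in size; about a fifth of the inactives were tested at one dose only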
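Cells stably selected in G418 were plated at 2000/well, grown 16-24 hr, then given compounds in DMSO with the PDE inhibitor […] (300 uM solution added) for 30 min at 37C; cAMP was read by HTRF.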
Menin MLL FP FL – displaces fluorescein MLL peptide from human menin | Fluorescence polarization, fluorescein-MLL peptide displacement from menin | FP activity change, % at 61.4 µM | 290,000 tested, under 10 active | AID 1766; inconclusive = falling polarisation curve, or a change in total fluorescence; inactive = total fluorescence flat and polarisation flat or rising; no compound was filed as active; the % refers to the polarisation; negative = inhibition;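 further: % of control where 0% means no effect; inhibitors lower the polarisation; unlabelled MLL peptide was the positive control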
The depositor's hits bear a star; ? = inconclusive; . = no result given; & = joins results of further samples; [ ] = remark or other dose.

SMILES | ClpP mod | CtBP-E1A blk | Sfp PPTase inh | TRPV1 potentiator | gsp antagonist | gsp ag | Menin MLL FP FL
COc1ccc(Cc2nnc(Nc3ccc(C)cc3)o2)cc1OC | -0.7% | . | 12% | -15 | -1% | -13% | 1.4
CCn1c(SCC(=O)c2c[nH]c3ccccc23)nnc1-c1cccs1 | -4.4% | 3 | 19% | 11 | 5% | ? | 5.7
O=C(Cn1c(NCCCO)nc2ccccc21)c1ccc([N+](=O)[O-])cc1 | -0.7% | 0 | 16% | -15 | 7% | -9% | 0.2
O=C(c1cscn1)N1CCCC(N2CCN(c3ccc(F)cc3)CC2)C1 (configuration not stated) | 0.6% | -4 | 19% | 6 | 10% | -75%[inhibitor] | .
Cc1cc(C)c(NC(=O)Cn2c(=O)n(-c3ccc(CC(=O)NCC4CCCO4)cc3)c(=O)c3ccccc32)c(C)c1 (configuration not stated) | -1.0%&-5.9% | -1 | -6% | 0 | 8% | 12% | 0.7
CC(C)COc1ccc(-c2nnc(-c3ccco3)o2)cc1 | 16µM* | -3 | -19% | -21 | -10% | 7% | 13
CC1CC(C)(C)NC(=S)N1CC(=O)N(C)Cc1ccccc1 (configuration not stated) | -1.5% | 1 | 7% | 17 | 0% | 0%[15.4 µM] | 4.1
CCC(C)NCCCCOc1ccc(Br)cc1 (configuration not stated) | 1.2% | -9 | -13% | 13 | 15% | 1% | 3.5
CCN(CC(=O)Nc1cccc(OC)c1)C(=O)C1CCN(C(=O)Nc2ccccc2)CC1 | 0.9% | 1 | 8% | 11 | 10% | 1% | 2.1
Cc1ccc(NC(=O)CN(C)C(=O)COC(=O)/C=C/c2cccs2)cc1 | . | -23 | . | -3 | -8% | 2%[15.4 µM] | .
Cc1ccc2[nH]c(=O)c(-c3nc4cc(C)ccn4c3NCc3ccco3)cc2c1 | -5.0% | 0 | ? | -19 | -1% | -2% | -2.1
Cc1cccc(OCC(=O)Nc2ccc(N3CCN(C(=O)c4ccco4)CC3)cc2)c1 | -0.9% | -6 | -4% | . | ? | -17% | 5.3
COc1cccc(/C=C/C(=O)Nc2ccc(OC)nc2)c1 | -3.9% | 10 | -6% | -30 | -2% | -11% | 1.4
COc1ccc(C2C(C(=O)c3sc(C)nc3C)=C(O)C(=O)N2CCN(C)C)cc1OC (configuration not stated) | -4.8% | -1 | -3% | 14 | 13% | 4% | 1.3
O=C(CCCCCN1C(=O)c2ccccc2C1=O)NC1CCCC1 | -1.1% | 0 | -1% | 3 | -5% | -11% | 1.9
Cc1ccc(NC(=O)CN(C)C(=O)Cc2ccc(Cl)cc2Cl)cc1 | . | 0 | -6% | 13 | -3% | ? | 3.8
CC1CC(=O)Nc2ccccc2S1(=O)=O (configuration not stated) | 3.2% | -7 | 4% | 5 | 13% | -21% | 0.8
COc1ccc(NC(=O)c2nnn(Cc3cccc(F)c3)c2N)c(OC)c1 | 4.2% | -1 | -5% | -9 | 7% | -33%[inhibitor] | -0.1
COC(=O)c1ccc(CSc2nc3ccc(S(N)(=O)=O)cc3[nH]2)cc1 | -2.6% | 19 | -4% | 5 | 10% | 6%[15.4 µM] | -3.2
O=C1C2CCCCN2C(=O)N1CCCCN1CCN(c2cccc(Br)c2)CC1 (configuration not stated) | 2.9% | -1 | 3% | 0 | -4% | 16% | -0.8
Cc1cc(C)c(C)c(C(=O)C2OC(=O)C(C)(C)C(=O)C2(C)C)c1C (configuration not stated) | -0.6% | 0 | 9% | -16 | 37%[activator] | 14% | 4.0
CCc1ccc(NC(=O)N(CCN(C)C)C(C)c2cccnc2)cc1 (configuration not stated) | 3.2% | 2 | 16% | -4 | 12% | 0% | -0.8
O=C(CCCSc1ccccc1)Nc1nc(-c2ccccn2)cs1 | 0.6% | -18 | -17% | -12 | 13% | -12% | 3.3
NS(=O)(=O)c1cc(C(=O)OCC(=O)N2CCOCC2)ccc1Cl | . | 3 | 12% | 1 | -1% | -27% | 5.9
O=C(O)c1cccc(NC(=O)C2CC(=O)N(Cc3ccccc3)C2)c1 (configuration not stated) | 0.7% | -3 | 19% | 6 | 3% | ? | 1.1
Cc1occc1-c1nnc(SCC(=O)NCCc2ccccc2)o1 | . | -2 | 12% | 5 | -8% | -19% | 3.9
N#Cc1ccc(CN2CCN(C(=O)CCNS(=O)(=O)c3ccc(F)c(F)c3)CC2)cc1 | 3.2% | 2 | . | -10 | -1% | -42%[inhibitor] | .
[O-][n+]1ccc(C(O)c2ccccc2)cc1 (configuration not stated) | 0.2% | 4 | 21% | 1 | 4% | 14% | 1.5
Cc1ccc([N+](=O)[O-])cc1S(=O)(=O)NCc1cccnc1 | 0.9% | 6 | -3% | -11 | -6% | 13%[15.4 µM] | -1.0
CCOC(COC(=O)c1ccccc1C(=O)O)c1ccccc1 (configuration not stated) | -2.5% | -10 | . | . | . | -52%[inhibitor] | .

An excerpt of these results, comma-delimited:
molecule,ClpP mod,CtBP-E1A blk,Sfp PPTase inh,TRPV1 potentiator,gsp antagonist,gsp ag,Menin MLL FP FL
O=C(O)c1cccc(NC(=O)C2CC(=O)N(Cc3ccccc3)C2)c1 (configuration not stated),0.7%,-3,19%,6,3%,?,1.1
Cc1occc1-c1nnc(SCC(=O)NCCc2ccccc2)o1,.,-2,12%,5,-8%,-19%,3.9

Additional entries
SMILES | ClpP mod | CtBP-E1A blk | Sfp PPTase inh | TRPV1 potentiator | gsp antagonist | gsp ag | Menin MLL FP FL
Cc1cc(C)c(C(=O)COC(=O)c2cccc(S(=O)(=O)N3CCOCC3)c2)cc1C | 0.1% | 7 | . | . | . | 2% | .
CSc1ccc(/C=N/NC(=O)CN2CCN(Cc3ccc(Cl)cc3)CC2)cc1 | ? | -14 | 0% | -28 | -18% | -36%[inhibitor] | 1.3
COc1ccc([C@@H]2CC=C(C(=O)O)CN2S(=O)(=O)c2ccc(C)cc2)cc1OC | -1.9% | . | . | -5 | 2% | -9% | .
Cc1ccc(NC(=O)C(=O)c2c[nH]c3ccccc23)cc1 | -7.8% | . | 9% | -1 | -4% | -39%[inhibitor] | 7.9
COC(CNC(=O)CSCc1nc(-c2ccc(SC)cc2)oc1C)OC | . | 8 | 8% | -17 | -11% | ? | 3.2
CCNC(=O)/N=C1/NC(=O)C(C(C)C)O1 (configuration not stated) | 1.7% | 0 | -27% | 4 | 1% | -1% | 1.3
O=C(CCSCc1ccccc1Cl)NCc1ccco1 | -0.7% | -16 | 15% | -21 | 6% | -24%[15.4 µM] | 2.2
CCOC(=O)c1c(C)[nH]c(C)c1S(=O)(=O)NCC1CCN(Cc2ccccc2OC)CC1 | -3.1% | -3 | 11% | 12 | 5% | ? | -0.1
CCOc1ccc(NS(=O)(=O)c2ccc3c(c2)CCN3C(C)=O)cc1 | -0.9%&-4.6% | -2 | 10% | 21 | 5% | -10%[15.4 µM] | -3.4
O=C(CN1C(=O)c2ccccc2S1(=O)=O)NCCc1ccc(F)cc1 | -2.2% | . | . | . | -1% | -11% | .
CCCn1c(CC)nc([N+](=O)[O-])c1Sc1ncn[nH]1 | -2.7% | 0 | . | . | . | -10% | .
COc1ccc(CC(=O)N2CCN=C2SC)cc1 | 1.2% | 3 | 8% | 5 | 11% | 33% | 1.1
Cc1ccc(-c2ccc(/C=C(\C#N)C(=O)Nc3cc(C)nn3-c3ccccc3)o2)cc1 | . | . | -7% | -12 | . | . | ?
CCCN(CCC)CCCNC(=O)c1ccc2c(Cl)c3c(nc2c1)CCC3 | -1.6% | -7 | 2% | -1 | 5% | 0%[15.4 µM] | 0.9
NS(=O)(=O)c1ccc(CNC(=O)C2(c3ccc(Cl)cc3)CC2)cc1 | -3.1% | -5 | 17% | -6 | 8% | -4%[15.4 µM] | -7.5
CCc1[nH]nc(C(=O)N2CCCC(Nc3ccc(C(C)C)cc3)C2)c1C (configuration not stated) | . | -6 | 5% | -43 | 2% | 0%[15.4 µM] | .
O=C(NN=Cc1ccccc1C(=O)O)c1ccc(NS(=O)(=O)c2cccs2)cc1 | 0.8% | 0 | . | . | -3% | -16% | .
O=C(Nc1cccc([N+](=O)[O-])c1)Nc1ccc(Cl)cn1 | . | -23 | 14% | 1 | 7% | 1%[15.4 µM] | 0.8
O=C(C1CCCN(c2ncccn2)C1)N1CCc2ccccc21 (configuration not stated) | -20% | -22 | 15% | -5 | -7% | -29% | -0.1
O=S1(=O)c2c(F)cccc2OC(COc2ccccc2)CN1CCc1ccc(F)cc1 (configuration not stated) | -1.1% | 10 | . | . | -1% | . | .
COCCNc1nnc(SCC(=O)NC2CCCCC2)s1 | -0.2% | . | . | 3 | 8% | 42% | .
Cc1c(NC2(c3nnnn3-c3ccc(Br)cc3)CCCCC2)c(=O)n(-c2ccccc2)n1C | -2.0% | -17 | 11% | -14 | -17% | 4% | -0.8
NC(=O)C1=C[C@H](c2ccc(C(F)(F)F)cc2)C[C@H](OCCCCO)O1 | -2.0% | 2 | 2% | -12 | 9% | 27% | 0.2
Cc1ccc(N(C)C(=O)CC(C)S(=O)(=O)c2ccc3c(c2)NC(=O)CO3)cc1 (configuration not stated) | -2.5%&-0.6% | -3 | 6% | -14 | 0% | 3% | .
COc1ccc(C(=O)Nc2ccc3c(c2)nc(CCNC(=O)c2ccco2)n3C)cc1 | . | -2 | 6% | 3 | -15% | 7% | -2.5
N#Cc1c(-c2cccnc2)cc(-c2ccccc2)nc1N | 3.9% | . | -1% | 10 | 6% | 30% | 3.1
Cc1cccn2c(CNCCSc3nccn3C)c(C(=O)N3CCCCC3)nc12 | -3.2% | 7 | -4% | 0 | 4% | ? | 0.1
CC(C)Oc1ccc(CCc2n[nH]c(=S)n2Cc2ccccc2)cc1 | -2.6% | -7 | -6% | 2 | -1% | 13% | 7.2
Cc1cc(C)cc(C(=O)NC(CC(N)=O)c2ccc(N3CCC(Cc4ccccc4)CC3)c([N+](=O)[O-])c2)c1 (configuration not stated) | -0.3% | -5 | 2% | 5 | -1% | . | -1.1
O=S(=O)(c1ccc(Cl)cc1)N1CCCN(c2ccc(C(F)(F)F)cn2)CC1 | -6.6% | 14 | 10% | -12 | -24% | -4%[15.4 µM] | 0.1

Compounds as they come, and some 5.3% of all compounds hit somewhere here.
